# Six1-Eya2 inh = Six1/Eya2 interaction inhibition | actives 0.56% (n = 360,000) | AlphaScreen GST-Six1/His-Eya2 binding, biochemical; hits give low values; control for the full effect not named in the record | Q15475+O00167 | activity change, % (concentration not given with the values); in the data active = activity change below about -65%; inconclusive = about -30% to -65%; inactive = above about -30%; further: on the % scale 0 is the no-effect control and ±100 the full control effect
#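 AlphaScreen with GST-Six1 and His-Eya2 (5X mix: 250 nM and 500 nM), glutathione donor and nickel acceptor beads; buffer 50 mM Tris pH 8.0, 300 mM NaCl, 1 mM TCEP; 1 h at 37 C in the dark.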
# TRPV1 PAM = potentiators of human vanilloid receptor 1 (TRPV1). actives 0.02% (n = 320,000). Q8NER1. TRPV1-expressing cells, Fluo-8 calcium influx, capsaicin EC20 potentiation; host cell line not named in the record; control for the full effect not named in the record. potentiation, % at 8.33 µM; active means potentiation above 80%; inconclusive means 30% to 80%; inactive means below 30%; further: 0% is about no effect
#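 Cells expressing TRPV1 were dye-loaded with Fluo-8 and read kinetically: 10 s baseline, 3 min after compound (agonist portion), then 2 min after EC20 capsaicin (allosteric enhancer portion). Calcium-bound dye fluorescence at 480/520 nm.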
# CtBP-E1A blk = blocks the CtBP interaction with E1A; AlphaScreen GST-E1A/His-CtBP binding, 1536-well; hits give low values; control for the full effect not named in the record; activity change, % (test concentration not listed); actives 0.49% (n = 340,000); AID 651724; in the data active means activity change below about -65%; inconclusive means about -30% to -65%; inactive means above about -30%; further: on the % scale 0 is the no-effect control and ±100 the full control effect; compound concentration not given in the record
#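 GST-E1A and His-tagged CtBP (125 nM each as 5X stock) were preincubated with pin-transferred compound for 2 h at 37 °C in the dark, then glutathione donor and nickel acceptor beads were added for 1 h before AlphaScreen reading.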
# D2 agonist = agonists of human D2 dopamine receptor (beta-arrestin). actives 0.084% (n = 360,000). P14416. activation, % (test concentration not listed). DiscoveRx PathHunter D2 beta-arrestin, luminescence, 90 min; 100% = 57 uM dopamine signal; in the data active = activation above about 40%; inconclusive = about 15% to 40%; inactive = below about 15%; further: compound concentration not given in the record; the text of the record calls up to 30% inactive
# Target sequence (P14416 whole entry, looked up): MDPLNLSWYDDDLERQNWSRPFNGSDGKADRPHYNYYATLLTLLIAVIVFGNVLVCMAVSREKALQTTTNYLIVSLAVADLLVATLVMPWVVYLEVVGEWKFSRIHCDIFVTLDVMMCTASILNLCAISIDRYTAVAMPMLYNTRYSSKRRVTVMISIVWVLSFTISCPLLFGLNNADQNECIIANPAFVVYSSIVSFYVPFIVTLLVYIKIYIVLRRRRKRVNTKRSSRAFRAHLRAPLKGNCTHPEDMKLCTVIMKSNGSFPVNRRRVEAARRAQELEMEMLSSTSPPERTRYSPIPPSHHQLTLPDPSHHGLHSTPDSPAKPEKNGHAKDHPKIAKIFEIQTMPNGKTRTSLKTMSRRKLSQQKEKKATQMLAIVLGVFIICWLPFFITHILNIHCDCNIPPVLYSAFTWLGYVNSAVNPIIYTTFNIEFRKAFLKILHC
#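 DiscoveRx PathHunter D2 beta-arrestin cells (2,100/well) attached overnight, then compound-stimulated 90 min at 37 C in HBSS/10 mM HEPES/0.1% Tween-20 buffer; beta-galactosidase complementation read by luminescence after 1 h at ambient temperature. Dopamine 57 uM final (EC100) as control.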
# PINK1 expr mod = PINK1 expression modulation; actives 0.2% (n = 410,000); AID 624263; Potency, µM (doses to about 76.6 µM), without a hit: at the highest dose activation (PINK1 increase), most hits filed as activators; PINK1 immunofluorescence, high-content cytometry, 24 h; active = well fitted activation curve with a large enough effect; inconclusive = small, poorly fitted or top-dose-only effect; inactive = flat fitted curve, though single readings scatter; cell line not stated here;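 further: potency means the concentration at half of the fitted maximal effect; % of control where 0% means no effect; nearly all actives have a fitted effect of over 65% in size; a mitochondrial uncoupler was the plate control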
#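 Stable cell line, 250 cells/well, 12 h attachment; compounds pinned at 5 concentrations, 24 h; CCCP control. Fixed with nuclear dye, primary antibodies 12 h at 10 degrees C, secondary plus cell stain; laser-scanning cytometer read.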
# Sfp PPTase inh = Sfp phosphopantetheinyl transferase inhibition | Q9F4F7 | actives 3.5% (n = 310,000) | Potency, µM, inactives show max response, negative = inhibition, most hits filed as inhibitors | Biochemical Sfp PPTase activity, qHTS; active means well fitted inhibition curve with a large enough effect; inconclusive means small, poorly fitted or top-dose-only effect, or another doubt; inactive means no such curve, though single readings can be large or run the other way;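 further: the enzyme is Sfp with the accession as filed and its product quenches rhodamine fluorescence; potency means the concentration at half of the fitted maximal effect; 0% = enzyme reaction without inhibitor and -100% = no enzyme wells; top concentration of the series not given in the record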
#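 With Hepes-Na pH 7.6 buffer containing 10 mM MgCl2, Sfp (15 nM) modified BHQ-2-YbbR (12.5 uM) using rhodamine-CoA (5 uM). Two reads 30 minutes apart at 525/598 nm yielded each well's rate.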
# D2 PAM = potentiates the human D2 dopamine receptor allosterically. DiscoveRx D2 beta-arrestin cells, luminescence, 90 min; 100% = 57 uM dopamine signal. P14416. potentiation, % (concentration not given with the values). actives 0.23% (n = 360,000). AID 624464; active = potentiation of 50% or more; inconclusive = 30% to 50%; inactive = 30% or less;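 further: compound concentration not given in the record; tested on top of an EC20 dose of dopamine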
#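 PathHunter beta-arrestin assay in DiscoveRx D2 cells. Compounds were added with an EC20 of dopamine (50 nM final) for 90 min at 37 deg C. Luminescence was read 1 h after detection reagent, with 57 uM dopamine as the EC100 control.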
# Active calls of the source: *; ? = inconclusive; · = not tested or not shown; & = joins results of further samples; [ ] = dose if it differs, or a comment.
SMILES,Six1-Eya2 inh,TRPV1 PAM,CtBP-E1A blk,D2 agonist,PINK1 expr mod,Sfp PPTase inh,D2 PAM
N#CC1=C(N)Oc2cc(N)ccc2C1C1CC=CCC1 (stereo unspecified),-4,0,2,0.6,7.8%,-4%,0
COc1cc(/C=N/NC(=O)COc2c(C)cc([N+](=O)[O-])cc2C)ccc1OC(=O)c1ccccc1Br,-17,6,-4,-1.4,3.7%,-2%,-11
O=C1C2CCCCN2C(=O)N1CCN1CCN(c2ccc([N+](=O)[O-])cc2)CC1 (stereo unspecified),-6,21,-3,-2.6,0.0%,-1%,-20
CC(C)C(=O)N1CCN(c2ccccc2NC(=O)c2cc([N+](=O)[O-])ccc2N2CCOCC2)CC1,-6,4,4,-1.4,11%,7%,-2
Cc1ccc(N(CC(=O)Nc2ccc(Br)c(C)c2)S(=O)(=O)c2c(C)[nH]c(=O)[nH]c2=O)cc1,-2,4,-11,0.8,0.8%,8%,-1
O=C(CN1CCc2ccccc2C1)c1cccs1,0,22,17,-0.8,-1.1%,56µM*,-42
O=S(=O)(Nc1ccc2nc(N3CCOCC3)sc2c1)c1ccccc1,-6,16,3,-0.8,4.4%,·,3
COc1cccc(NC(=O)CCNC(=O)Cn2ccc3ccccc3c2=O)c1,6,6,0,-1.9,1.4%&-0.9%,7%,-1
O=C(COc1ccc(Cl)cc1)NCc1nnc(SCC(=O)NCC2CCCO2)o1 (stereo unspecified),18,3,36,0.6,1.9%,13%,1
CCCc1ccc2oc(C(=O)NCCN3CCCC(C(N)=O)C3)c(C)c2c1 (stereo unspecified),-4,-4,·,6.0,4.6%,8%,-7
CC(=O)Nc1ccc2nc(-c3ccccn3)[nH]c2c1,?,-4,?,2.3,3.7%,50µM*,3
CCNc1nc(OC)nc(N2CCC(Cc3ccccc3)CC2)n1,6,-19,-10,-1.7,9.0%,-29%,6
O=c1cc(CN2CCC3(CC2)OCCO3)c2c(ccc3ccccc32)o1,-3,-34,-2,-3.1,-1.8%,-16%,-14
COc1ccc(N2CCN(C(=O)CN3c4cccc5cccc(c45)S3(=O)=O)CC2)cc1,-14,·,-8,-0.7,0.6%,·,-4
CSc1ccccc1C(=O)Nc1cc(C)ccc1C,0,3,·,-3.9,0.7%,13%,-9
CN1CCc2c(sc3c2C(=O)NC(/C=C\c2ccccc2)N3)C1 (stereo unspecified),-8,17,-9,-1.2,5.0%,-4%,-11
O=C(O)CNC1=NCCCCC1,4,6,-7,0.9,0.1%[38.3 µM],4%,0
CCc1cccc2c(C(=O)CN3C(=O)NC4(CCCCC4)C3=O)c[nH]c12,-7,·,-2,-2.9,9.7%,·,-4
C/C(=N\NC(=O)CSc1ncccn1)c1ccc2c(c1)OCCO2,8,-1,0,-4.6,0.9%,12%,-7
Cc1nn(C)cc1NC(=O)CC12CC3CC(CC(C3)C1)C2,-1,-10,-8,3.0,3.5%,7%,-1
CCN1C(=O)N(S(=O)(=O)c2ccc(C)cc2)[C@@H](c2ccccc2)C(C(=O)OC)=C1C,-10,-15,-7,-2.0,1.6%,-26%&11%,2
COC(=O)c1ccc(CSc2nc3ccccc3c(=O)n2N)cc1,-2,9,7,-0.9,18%,-4%,-1
COc1ccc(C(c2nnnn2Cc2cccs2)N2CCN(c3ccc(F)cc3)CC2)cc1OC (stereo unspecified),-15,-1,-12,-3.1,-1.5%,-3%,-5
CCN(C(=O)COC(=O)c1cc(=O)c2ccccc2o1)c1c(N)n(Cc2ccccc2)c(=O)[nH]c1=O,-1,18,7,-3.5,-0.3%,·,5
O=C(CCCN1C(=O)c2ccccc2C1=O)Nc1c(C(=O)C2CC2)oc2ccccc12,3,2,-1,-3.2,-1.1%,12%,-4
# (continued)
SMILES,Six1-Eya2 inh,TRPV1 PAM,CtBP-E1A blk,D2 agonist,PINK1 expr mod,Sfp PPTase inh,D2 PAM
O=C(CCCn1c(=O)c2sccc2n(CC(=O)NCc2ccco2)c1=O)NCc1ccco1,-4,8,1,-2.1,-1.7%[38.3 µM],14%,-8
CC1=NN(C(C#N)c2ccccc2)C(c2ccccc2)C1 (stereo unspecified),4,14,·,-4.7,0.2%,-29%,-13
COc1cc(C=C(C#N)c2ccc([N+](=O)[O-])cc2)ccc1O,-29,·,-2,-3.4,1.3%,·,-18
CC(=O)Nc1ccc(N=Cc2c(O)ccc3ccccc23)cc1,1,?,·,9.9,-1.8%,-2%,0
NC(=O)c1sc2cc(C(F)(F)F)cnc2c1-c1cccs1,-2,3,15,-6.6,4.0%,11%,13
CC1CCCCC12NC(=O)N(CC(=O)NCCc1ccccn1)C2=O (stereo unspecified),5,-3,-1,0.8,0.3%,16%,16
CCOc1ccccc1C(=O)NCC(=O)NNC(=O)c1cccc(S(=O)(=O)Nc2ccc(OC)cc2)c1,-8,1,-5,0.1,3.5%,·,-3
COc1ccc(S(=O)(=O)N2CCCCCC2)cc1C(=O)N(C)CCOc1ccc(Cl)cc1,2,2,-2,1.9,-0.5%,·,-7
O=C1Nc2ccc(S(=O)(=O)N(CCO)CCO)c3cccc1c23,2,2,4,-1.8,1.4%,15%,-1
CC(/C=C/c1ccccc1)=N/NC(=O)Cn1nnc(N)n1,3,13,2,-1.4,-1.6%,16%,-1
CCC(C(=O)NC(C)(C)C)N(C(=O)c1ccc(Cl)nc1)C1CCCC1 (stereo unspecified),1,-17,7,-4.5,1.9%,4%,0
NC1=NS(=O)(=O)NC1c1cccc(Cl)c1 (stereo unspecified),1,-1,1,-4.1,-0.4%,17%,-27
Cc1ccc2c(c1)nnn2C1CCN(C(=O)C2CCCCC2)CC1,2,-17,1,-0.8,-1.5%,9%,-13
CCC(=O)Nc1ccc(C(=O)CSc2nnc(-c3ccccc3F)n2CCc2ccccc2)cc1,-9,3,3,0.2,-0.6%,-18%,-12
O=C(Nc1ccc2nn(-c3ccccc3)nc2c1)c1ccc2c(c1)OCCO2,-4,16,-1,-0.7,11%,17%,-4
Cc1cn2c(=O)c(C(=O)N3CCN(c4ccccc4F)CC3)cnc2s1,-4,4,-3,-2.2,1.3%,·,5
Nc1cc(=O)[nH]c(SCC(=O)Nc2ccc(Cl)c(Cl)c2)n1,-1,4,1,-1.4,2.0%[38.3 µM],3%,-9
CCOC(=O)C1=C(C)NC(=S)N(C=O)C1c1ccccc1 (stereo unspecified),5,12,4,-0.3,3.9%,12%,-5
COCCC(=O)NNS(=O)(=O)c1ccc(Cl)cc1,9,4,0,-1.8,-0.7%,9%,-1
Cc1cc(C)c(S(=O)(=O)NC2CC3CCC2C3)c(C)c1 (stereo unspecified),13,-5,-15,-4.4,11%,15%,-3
O=C(COc1cccc2cccnc12)N/N=C1\SCC(=O)N1Cc1ccco1,1,15,1,-1.6,-1.9%,-15%,-17
COc1ccccc1N/C(N)=N/c1nc(C)cc(C)n1,-7,3,1,-4.0,-0.4%,4%,-16
CN1CCSc2ccc(C(=O)NCc3cccc(Br)c3)cc21,-10,-4,-1,-6.2,1.1%,3%,-7
CCCCNS(=O)(=O)c1ccc2nc(SCC(=O)Nc3ccccc3Cl)[nH]c2c1,-7,?,-24,-0.3,?,12%,26
Cc1noc2ncnc(Oc3ccc(C(C)(C)C)cc3)c12,3,-26,16,-5.0,5.7%,18%,-2
O=C(COc1ccc(-n2cnnn2)cc1)Nc1ccc(F)cc1,2,·,2,1.1,1.8%,·,9
O=C1COc2ccc(OCc3ccc(F)cc3)cc21,6,9,20,-0.6,8.1%[38.3 µM],6%,3
O=C(COc1cccc2ccccc12)NCc1cccnc1,1,-12,-25,-14,-2.5%,13%,-3
CSc1ccc(CCNC(=O)CCc2nnc3ccc(N4CCC5(CC4)OCCO5)nn23)cc1,-3,5,-16,0.5,-1.0%,5%,-10
CC1CN(Cc2ccccc2)C(C)CC1O (stereo unspecified),2,2,1,-2.0,2.6%,8%,-3
